VDR inhibitor: inhibitors of human vitamin D receptor. 400,000 compounds, 0.93% hits. P11473. VDR-SRC2-3 peptide fluorescence polarization, 2 h. Potency, µM, for inactives: max response, negative = inhibition, actives largely listed as inhibitors; active means well fitted inhibition curve with a large enough effect; inconclusive means small, poorly fitted or top-dose-only effect, or another doubt; inactive means no such curve, though single readings can be large or run the other way; further: series mostly up to about 120 µM
Target sequence (P11473 whole entry, looked up): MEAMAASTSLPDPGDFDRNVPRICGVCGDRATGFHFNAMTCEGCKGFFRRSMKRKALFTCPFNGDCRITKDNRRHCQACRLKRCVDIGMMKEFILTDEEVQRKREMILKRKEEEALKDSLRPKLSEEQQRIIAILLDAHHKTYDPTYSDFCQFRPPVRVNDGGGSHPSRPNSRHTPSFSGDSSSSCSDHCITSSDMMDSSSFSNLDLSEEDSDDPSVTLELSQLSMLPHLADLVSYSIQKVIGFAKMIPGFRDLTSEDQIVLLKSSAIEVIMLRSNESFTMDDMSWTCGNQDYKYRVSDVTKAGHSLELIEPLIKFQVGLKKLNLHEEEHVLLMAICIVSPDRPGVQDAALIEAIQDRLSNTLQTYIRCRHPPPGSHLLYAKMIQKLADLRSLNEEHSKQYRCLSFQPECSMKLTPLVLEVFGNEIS
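Signal is fluorescence polarization, reporting how far test compounds block the interaction of VDR with the SRC2-3 coregulator peptide after a 2 h room-temperature incubation.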
* = called active by the depositor; ? = inconclusive; & = joins results of further samples. On the % scale 0 is the no-effect control and ±100 the full control effect; potency means the concentration at half of the fitted maximal effect. This is a subset; count on the stated rates, not on these rows.

mol	VDR inhibitor
Cc1cccc(C)c1OCC(O)CN(Cc1ccccc1O)C1CCCCC1 (stereo not drawn)	-15%
Cc1ccc2nc3c(c(Nc4ccc(C)c(C)c4)c2c1)CCC3	-10%
C=CCOC(=O)C1=C[C@@H](c2csc3ccccc23)C[C@@H](OCc2ccc(CO)cc2)O1	0%
COc1ccc(/C=N/NC(=O)Cc2csc(Nc3cccc(C(F)(F)F)c3)n2)cc1C	-19%
CC(=O)Nc1ccc(S[C@@H](CCN2CC[C@H](O)CCC2=O)c2ccccc2)cc1	-15%
O=C(NC1(C(F)(F)F)N=C2SCCN2C1=O)c1ccccc1 (stereo not drawn)	-4%
CN1CCCN(S(=O)(=O)c2ccc3c(c2)OCCO3)CC1	-8%&-5%
COc1ccccc1Oc1coc2cc(OC(=O)N3CCOCC3)ccc2c1=O	4%
CCc1ccc(NC(=O)CSc2nc(=O)n(CCCN(C)C)c3c2CCC3)cc1	7%
CCOc1cccc(C2C(C(=O)c3ccc(C)o3)=C(O)C(=O)N2Cc2ccncc2)c1 (stereo not drawn)	-8%
CCc1ccc(CNC(=O)C2CCC(=O)N2C2CCCCC2)cc1 (stereo not drawn)	-5%
COCC(C)NC(=O)C(C)N1c2cccc3cccc(c23)S1(=O)=O (stereo not drawn)	-7%
Cc1cc(NC(=O)CSc2nnc(-c3ccc(Cl)s3)o2)no1	-6%
Cc1cc(C(=O)OCC(=O)Nc2cccc(S(=O)(=O)N3CCOCC3)c2)c(C)o1	-18%
CCCCn1nnnc1NCc1cc(Cl)c(OC)c(OC)c1	-1%
CN(C(=O)COC(=O)CCC(=O)c1ccc(F)cc1)C1CCCCC1	-1%
CN(C)/C=c1\sc2c(C#N)cc(C(=O)c3ccc(Br)cc3)n2c1=O	-9%
O=C(O)CC/C=C\CC[C@H]1[C@@H](N2CCCCC2)[C@@H](O)C[C@@H]1OCc1ccc(-c2ccccc2)cc1	-6%
Cc1ccc(S(=O)(=O)Nc2nc(CN3CCOCC3)nc3sc(C)c(C)c23)cc1	-20%
NC(=O)c1ccc(NC(=O)CN2C(=O)NC3(CCCCCCC3)C2=O)cc1	10%
CC1O[C@@H](O[C@@H]2C(O)C[C@H](O[C@@H]3C(O)C[C@@H](OC4CC[C@@]5(C)C6CC(O)[C@@]7(C)C(C8=CC(=O)OC8)CC[C@@]7(O)C6CC[C@@H]5C4)OC3C)OC2C)CC(O)[C@H]1O (stereo partly drawn)	2%
Cn1c(CNc2nc(-c3ccccc3)cs2)nnc1SCC(=O)OC1CCCCC1	-3%
Cc1ccc(Cn2c(Cc3ccccc3)nc3ccccc32)cc1	-12%&-9%
CCOC(=O)CSc1nc(-c2ccccc2)nc2ccccc12	-6%
COc1cc(C)ccc1OCC(=O)Nc1ccc2c(c1)OCO2	22%
CC(NC(=O)OCc1ccccc1)c1ccccc1 (stereo not drawn)	-12%
CCn1c(SCC(=O)c2ccc3ccccc3c2)nnc1-c1cccs1	1%
COCCn1c(=O)c2c(nc3n2CC(C)CN3Cc2ccccc2)n(C)c1=O (stereo not drawn)	0%
COc1ccc(Cl)cc1NC(=O)CN(C)C(=O)c1ccc2n[nH]nc2c1	12%
CC1CCN(c2c(NCC3CCC(C(=O)NCc4ccc(F)cc4)CC3)c(=O)c2=O)CC1 (stereo not drawn)	-17%
Cc1onc(-c2ccccc2Cl)c1C(=O)Nc1sc2c(c1C(N)=O)CCC(C)C2 (stereo not drawn)	10%
Cc1nc(N2CCCC2)ncc1C(=O)NCc1ccc(F)cc1	1%
O=C(COC(=O)CCOc1ccccc1)NCCC1=CCCCC1	-21%
Cn1c(=O)[nH]c(=O)c2c1nc1n2CCCS1	-1%
COc1ccc(C(=O)N2CCN(S(=O)(=O)c3ccc(Cl)cc3)CC2)cc1S(=O)(=O)N1CCOCC1	13%
C#CCN1C(C)=C(C(=O)OC)C(c2cccc([N+](=O)[O-])c2)C(C(=O)OCC)=C1C (stereo not drawn)	?
CCOc1ccccc1CNC(=O)CCc1cn(Cc2ccc(Cl)cc2)c2ccccc12	-3%
CCOc1ccc2nc(N3CCC(C(=O)NC4CCCCC4)CC3)sc2c1	-3%
COc1cc(C(=O)NCc2nnc(SCC(=O)N3CCCCCC3)o2)cc(OC)c1OC	-7%
COc1ccc(CC(NC(C)=O)C(=O)NC2CCN(C(=O)C3CCCCC3)CC2)c(OC)c1 (stereo not drawn)	1%
Cn1c(=O)c2c(nc(Oc3ccccc3N)n2C)n(C)c1=O	2%
CCN(CC)C(=O)Cn1cc(SCC(=O)Nc2ccccc2F)c2ccccc21	4%
C#CCOCCOCCOCCNc1nc(N2CCN(C(=O)CCCCCCCCCCNC(=O)Cn3cc(C[C@@H](C)O)nn3)CC2)nc(N2CCN(C(=O)CCCCCCCCCCNC(=O)[C@@H](CCC(=O)O)n3cc(CCCCCN)nn3)CC2)n1	-19%
Cc1ccc(C(=O)Nc2ccc3c(c2)OCO3)cc1S(=O)(=O)N1CCCC1	10%
CC(NC(=O)c1cc([N+](=O)[O-])cc([N+](=O)[O-])c1)c1ccc(-n2ccnc2)cc1 (stereo not drawn)	-10%
COc1ccc(CNc2ncnc3c2nc2n3CCCC2)cc1	1%
Cc1ccc(C)c(NC(=O)Cn2c(=O)n(CCC(=O)NCc3ccc4c(c3)OCO4)c(=O)c3ccccc32)c1	2%
O=C(CN1C(=O)S/C(=C\c2ccc(F)cc2)C1=O)Nc1cccc(S(=O)(=O)NCc2ccco2)c1	-10%
CCc1oc(C(=O)OC)cc1CSC(=N)N	13%
CC(C)C(=O)Nc1ccc(C(=O)NCc2cccnc2)cc1	8%
CCc1nnc(NS(=O)(=O)c2ccc(NC(=O)/C=C/C(=O)O)cc2)s1	-4%
Cc1ccc(C)c(NC(=O)CN(C)C(=O)c2cc3ccccc3oc2=O)c1	15%
Cc1ccc(Oc2nc3c(c(=O)n(Cc4ccccc4F)c(=O)n3C)n2C)cc1	-4%
O=C(CSc1nc(-c2cccs2)cc(C(F)(F)F)n1)NCCCN1CCOCC1	8%
COc1ccc(C(=O)c2sc(Nc3ccccc3)nc2C)cc1	2%
Cc1c(C(=O)N(Cc2ccccc2Cl)C2CCS(=O)(=O)C2)oc2ccccc12 (stereo not drawn)	-3%
COc1cccc(C(=O)c2c[nH]c(C(=O)NCc3cccs3)c2)c1	-5%
COc1ccc(-c2cc(C(=O)N3CCC3)c3ccccc3n2)cc1OC	-8%
O=C(O)c1[nH]c2ccc(Cl)cc2c1CCN1C(=O)c2ccccc2C1=O	0%
O=C(Nc1nc2ccsc2c(=O)s1)c1ccco1	23%

Continuation.
mol	VDR inhibitor
CC1C2CC(C(CN(C)C)/C2=N/O)C1(C)C (stereo not drawn)	5%
Cc1nc2ccccn2c1CN(C)C(=O)C1CCC(=O)N(Cc2cccc(F)c2)C1 (stereo not drawn)	-9%
Cn1c(Cc2ccc(Cl)cc2)nnc1SCC(=O)NC1CC1	3%
CCOc1ccccc1C(=O)NCC(=O)NCCSc1ccc(Br)cc1	1%
O=C(OCC(=O)N1CCCc2ccccc21)c1ccccc1NCCO	-3%
N/C(=N\OS(=O)(=O)c1ccccc1)c1ccccn1	-10%
CCCCCCCCCCCCN1[C@@H](CC(C)=O)c2cc(C(F)(F)F)ccc2S1(=O)=O	-1%
C=CC1=C(C(=O)O)N2C(=O)[C@@H](NC(=O)/C(=N/OCC(=O)O)c3csc(N)n3)[C@H]2SC1	-12%
Cc1nnsc1C(=O)NC(=O)Nc1ccc(F)c(Cl)c1	17%
Cc1ccc(-c2cc(-c3ccccc3Cl)[nH]n2)c(O)c1	15%
CN(C)c1ccc(P(=O)(OC2CCCCC2)C(Nc2ccccc2)c2cccnc2)cc1 (stereo not drawn)	-14%
CC(C)(C)NC(=O)NC(=O)COc1ccccc1C#N	-4%
O=C(OCc1ccc(C(=O)c2ccccc2)cc1)c1cccc(-c2nnc(-c3ccccc3)o2)c1	0%
O=C(CSc1nc2ccccc2c(=O)[nH]1)N1CCOCC1	22%
CCCC1OC2CC3C4CCC5=CC(=O)C=CC5(C)C4C(O)CC3(C)[C@]2(C(=O)CO)O1 (stereo partly drawn)	-7%
COc1ccc(-c2nc(-c3ccccn3)no2)cc1	-4%
O=C(Nc1cccc(C(=O)N2CCOCC2)c1)C1CCCC1	-6%
CC(C)C1NC(=S)N(C2CCCCC2)C1=O (stereo not drawn)	-2%
CCN1CCN(C(=S)c2ccc(OCC(=O)N3CCOCC3)cc2)CC1	10%
COc1ccc(CCNC(=O)CN(C2CCCCC2)S(C)(=O)=O)cc1OC	6%
Cc1ccc2ccc(C3C(=O)c4ccccc4C3=O)nc2c1	24%
Cc1ccc(CNC(=O)C2CSC3(C)CCC(=O)N23)cc1 (stereo not drawn)	-3%
CN(C)S(=O)(=O)c1ccc(C(=O)NCC[N+]2(C)CCCCCC2)o1	-2%
O=C(CSc1nc2ccccc2o1)NCC1CCCO1 (stereo not drawn)	-3%
Cc1ccc(OCCCC(=O)Nc2nnc(C3CCCO3)s2)c(C)c1 (stereo not drawn)	-18%
Cc1cccc(NC(=O)CC(=O)Nc2cccc(C)c2)c1	23%
CCn1c(SCC(=O)Nc2nnc(C)s2)nnc1-c1ccncc1	3%
Cc1ccc(S(=O)(=O)N2CCN(S(C)(=O)=O)C2)cc1	5%
CCN(CC(=O)Nc1cc(S(=O)(=O)N2CCCCC2)ccc1C)Cc1ccccc1	8%
[O-][n+]1ccccc1SSc1cccc[n+]1[O-]	5.6µM*
Cc1ccc(/C=C/C(=O)c2nc3ccccc3[nH]2)cc1	?
N#CC1=C2SCN(Cc3ccco3)CN2C(=O)CC1c1ccc(Cl)cc1 (stereo not drawn)	?
O=C(COc1ccc2ccccc2c1)NC1=NCCS1	-1%
COc1ccc(OC)c(S(=O)(=O)N2CCCC(C(=O)NCc3ccccn3)C2)c1 (stereo not drawn)	-10%
CCC(c1nc2ccccc2c(=O)n1-c1nc2ccccc2s1)N1C(=O)c2ccccc2C1=O (stereo not drawn)	-12%
CCOc1ccccc1C1C(C(N)=O)=C(C)Nc2nc(-c3ccc(OC)cc3)nn21 (stereo not drawn)	-1%
Cc1nc2nc[nH]n2c(=O)c1NS(=O)(=O)c1ccc(Br)cc1	-10%
CCOC(=O)c1cc(-c2csc(-c3ccc(C(C)(C)C)cc3)n2)on1	5%
COc1ccc(-c2cn(-c3ccc(C)cc3C)c(=O)[nH]2)cc1OC	-23%
COC(=O)c1ccccc1NC(=O)CSc1nc2c(c(=O)[nH]1)CCC2	11%
O=C(O)c1ccc(C(=O)Nc2cccc(NC(=O)C3CCCO3)c2)cc1 (stereo not drawn)	3%
O=C(O)CCCC(=O)N1CCOCCOCCOCCOCC1	-9%
COc1cc(OC)cc(-n2nnnc2SCC(=O)NCCc2ccc(OC)c(OC)c2)c1	-7%
Cc1ccc(C(=O)c2ccc(C)cc2)cc1	21%
C=C(C)C1CC=C(C)/C(=N/NC(=O)COc2cccc3ccccc23)C1 (stereo not drawn)	-12%

Some of these compounds in order of length of the SMILES, ascending:
mol	VDR inhibitor
CC(C)C1NC(=S)N(C2CCCCC2)C1=O (stereo not drawn)	-2%
Cn1c(=O)[nH]c(=O)c2c1nc1n2CCCS1	-1%
COc1cc(C)ccc1OCC(=O)Nc1ccc2c(c1)OCO2	22%
CN1CCCN(S(=O)(=O)c2ccc3c(c2)OCCO3)CC1	-8%&-5%
Cc1ccc(-c2cc(-c3ccccc3Cl)[nH]n2)c(O)c1	15%
Cc1cccc(C)c1OCC(O)CN(Cc1ccccc1O)C1CCCCC1 (stereo not drawn)	-15%
CCN1CCN(C(=S)c2ccc(OCC(=O)N3CCOCC3)cc2)CC1	10%
O=C(O)c1ccc(C(=O)Nc2cccc(NC(=O)C3CCCO3)c2)cc1 (stereo not drawn)	3%
Cc1ccc(C(=O)Nc2ccc3c(c2)OCO3)cc1S(=O)(=O)N1CCCC1	10%
CCN(CC(=O)Nc1cc(S(=O)(=O)N2CCCCC2)ccc1C)Cc1ccccc1	8%
COc1cc(C(=O)NCc2nnc(SCC(=O)N3CCCCCC3)o2)cc(OC)c1OC	-7%
CCOc1cccc(C2C(C(=O)c3ccc(C)o3)=C(O)C(=O)N2Cc2ccncc2)c1 (stereo not drawn)	-8%
CCC(c1nc2ccccc2c(=O)n1-c1nc2ccccc2s1)N1C(=O)c2ccccc2C1=O (stereo not drawn)	-12%
C#CCOCCOCCOCCNc1nc(N2CCN(C(=O)CCCCCCCCCCNC(=O)Cn3cc(C[C@@H](C)O)nn3)CC2)nc(N2CCN(C(=O)CCCCCCCCCCNC(=O)[C@@H](CCC(=O)O)n3cc(CCCCCN)nn3)CC2)n1	-19%

Further entries
mol	VDR inhibitor
COc1ccc(-c2c(C)nn3c(N4CCC5(CC4)OCCO5)cc(C)nc23)cc1OC	4%
O=C(CN(Cc1ccc(Br)cc1)S(=O)(=O)c1ccccc1)NCc1ccccn1	8%
COC(=O)C1=C(C)Nc2[nH]c(=S)[nH]c(=O)c2C1c1ccc(OC)cc1 (stereo not drawn)	-3%
Clc1ccc2c(c1)-n1cc(-c3ccccc3)nc1CO2	14%
COc1ccc(-c2ccnc(SCC(=O)c3ccc(OC)c(OC)c3)n2)cc1	-4%
COCCNS(=O)(=O)c1cc(F)ccc1OC	-1%
CN1CCN(C(=O)c2ccc(COc3cc(Cl)ccc3Cl)o2)CC1	-1%
O=C(COc1ncnc2ccccc12)NCCc1ccc(F)cc1	-2%
CCC(=O)Nc1ccccc1C(=O)OC(c1ccccc1)c1ccccc1	-16%
Cc1nn(-c2ccc(N3CCCCC3)nn2)c(C)c1CCC(=O)NCc1ccccc1F	0%
Cc1cc(/C=C(\C#N)C(=O)NCc2ccccc2)cc(C)c1O	-9%
